# Bioassay records as filed in PubChem BioAssay.
# GIV-Gai inh – GIV-Galpha-i interaction inhibition; actives 0.42% (n = 210,000); P08753; percent of control (FP), % (test concentration not listed); Galpha-i3/FITC-GIV peptide fluorescence polarization, 90 min; hits give low values; scaled: aluminum fluoride 0%, vehicle 100%;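 active means replicate mean at 85% of control or lower, very high polarization wells dropped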;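 further: wells of about 15 µL received 100 nL stock; the first replicate is given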
# Target sequence (P08753 whole entry, looked up): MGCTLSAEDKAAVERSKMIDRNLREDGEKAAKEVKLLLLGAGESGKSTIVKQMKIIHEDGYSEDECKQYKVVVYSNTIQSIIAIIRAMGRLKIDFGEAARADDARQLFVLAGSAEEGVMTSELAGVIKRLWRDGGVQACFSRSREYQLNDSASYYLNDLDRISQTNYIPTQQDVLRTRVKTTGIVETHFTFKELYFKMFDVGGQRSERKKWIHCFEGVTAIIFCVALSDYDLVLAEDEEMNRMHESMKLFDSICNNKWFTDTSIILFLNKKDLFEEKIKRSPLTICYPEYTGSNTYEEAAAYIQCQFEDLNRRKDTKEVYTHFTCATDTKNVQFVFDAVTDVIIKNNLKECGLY
# Sa growth inh – inhibitors of Staphylococcus aureus growth at 42 °C. AID 720641. actives 0.53% (n = 170,000). S. aureus RN4220 growth, OD600, 20 h; hits give low values. relative growth, % (concentration not given with the values);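 active means growth at 42 °C up to 50% and 20 or more points under that at 30 °C, or under 10% at both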;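 further: 300 nL library stock went into each well; scaled to the means of positive and negative controls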
# HCMV NEC inh – cytomegalovirus nuclear egress complex inhibition. actives 0.15% (n = 190,000). HTRF UL50-UL53 interaction, normalized percent inhibition. inhibition, % (test concentration not listed). AID 1918969;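 active means both replicates at 50% or more, plus weaker picks with an unusually low signal ratio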;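 further: stock transfer was 100 nL into about 20 µL; 0% = negative control wells and 100% = wells with untagged competitor protein; inactives centre near -12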
# Sa growth inh second temp – recorded beside Sa growth inh, whose call it bears; relative growth, %; measured here: growth at 30 °C;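 optical density after 20 h as mean of two plates; 100% = untreated growth and lower means inhibition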
# The depositor's hits bear a star; · = not tested or not shown; & = joins results of further samples.
SMILES,GIV-Gai inh,Sa growth inh,Sa growth inh second temp,HCMV NEC inh
O=C1c2[nH]nc(-c3ccccc3O)c2C(c2ccc(Cl)cc2)N1CCc1ccccc1 (stereo unspecified),106.6,107.2,100.6,2.6
COc1cc(C(=O)N2CCC(c3nc4ccccc4o3)CC2)cc(OC)c1OC,102.3,99.8,80.8,-35.0
O=C1c2ccccc2CCC1C(O)c1ccccn1 (stereo unspecified),105.5,94.0,87.2,9.0
COc1ccc(NC(=O)Cn2c(=O)n(-c3ccc(CC(=O)NCC4CCCO4)cc3)c(=O)c3ccccc32)c(OC)c1 (stereo unspecified),103.2,83.7,91.2,-31.5
CCc1ccccc1NS(=O)(=O)c1cc(C(=O)N2CCCC2)cs1,100.2,·,·,-28.0
COc1ccc2nc(N3CCCCC3)c(/C=C3\SC(=S)NC3=O)cc2c1,137.0,91.2,98.3,·
CCOc1ccc(CNC(=O)c2ccc(NC(=O)N3CCSc4ncccc43)cc2)cc1OC,106.5,87.8,91.3,·
CCOc1ccc(N2C(=O)CN(CC(=O)OC)C2=S)cc1,97.0,92.7,85.8,-23.2
COC(=O)C(C)Sc1ncnc2c1cnn2-c1ccccc1 (stereo unspecified),104.8,98.6,83.9,-33.6
COc1ccc(-n2c(SCC(=O)c3ccc(C)cc3)nc3cc(C(=O)NC(C)C)ccc3c2=O)cc1,98.6,·,·,-14.9
COc1ccc(C2CC(=O)C3=C(C2)NC(C)=C(C(=O)OC(C)C)C3c2ccc(OC)c(OC)c2)cc1 (stereo unspecified),96.5,·,·,-13.7
COc1cccc(C(O)c2nc3ccccc3n2C(C)C)c1OC (stereo unspecified),96.4,89.1,87.8,-15.4
CC(=O)Nc1ccc2c(c1)nc1n2CCN(C(C)C)C1,102.0,·,·,11.5
O=C(NCCN1CCOCC1)Nc1ccccc1-c1ccccc1,101.7,96.2,99.7,-21.5
CN(C)CC#CC1(O)CCCCC1,·,73.7,104.0,-6.6
CCOC(=O)CC1C(=O)NCCN1Cc1ccc(C)cc1 (stereo unspecified),109.4,·,·,9.9
COc1ccc(C2C(C#N)=C(N)OC3=C2C(=O)CC(C)(C)C3)cc1COc1ccc(Cl)cc1 (stereo unspecified),101.0,·,·,-15.0
CC(C)CCN1C(=O)c2ccccc2CC1(C)C(=O)NC1CCCCC1 (stereo unspecified),108.3&100.4,104.2,99.2,-4.7&-4.7
O=C(CN1CCOCC1)NNc1nc(-c2ccccc2)c2cc(Cl)ccc2n1,104.2,112.9,75.4,-71.8
Cc1ccc(C)c(-c2cc(-c3nc(-c4ccccc4Br)no3)[nH]n2)c1,111.2,·,·,-12.8

# 3 entries from above, with two lines to a compound:
# Value order – GIV-Gai inh, Sa growth inh, Sa growth inh second temp, HCMV NEC inh
- CC(C)CCN1C(=O)c2ccccc2CC1(C)C(=O)NC1CCCCC1 (stereo unspecified)
 : 108.3&100.4, 104.2, 99.2, -4.7&-4.7
- O=C(CN1CCOCC1)NNc1nc(-c2ccccc2)c2cc(Cl)ccc2n1
 : 104.2, 112.9, 75.4, -71.8
- Cc1ccc(C)c(-c2cc(-c3nc(-c4ccccc4Br)no3)[nH]n2)c1
 : 111.2, ·, ·, -12.8

# (cont.)
SMILES,GIV-Gai inh,Sa growth inh,Sa growth inh second temp,HCMV NEC inh
CSc1nc(-c2ccco2)cc(C(F)(F)F)c1C#N,·,105.9,79.7,-10.2
N#Cc1ccccc1NS(=O)(=O)c1ccc(F)cc1,98.3,93.3,74.4,-15.4
CC1CC(C)CN(C(=O)CCNS(=O)(=O)c2ccc3[nH]c(=O)ccc3c2)C1 (stereo unspecified),103.3,94.1,103.7,4.6
Cc1cc(-n2c(C)cc(CNC(C)c3cccs3)c2C)no1 (stereo unspecified),·,92.7,102.4,-13.1
CCOC(=O)C1=C(C)N=c2s/c(=C\c3cccc(O)c3)c(=O)n2C1c1cc(Br)c(OC)cc1OC (stereo unspecified),102.6,·,·,-19.2
COc1ccc(NC(=O)C2=C(C)Nc3nc(SC)nn3C2c2cc(OC)ccc2OC)cc1 (stereo unspecified),102.2,94.6,90.3,·
COc1ccccc1C(=O)CSc1ccc(Cl)cc1,·,6.6*,1.5*,-25.5
N#CC(c1cccc(C(F)(F)F)c1)c1cccc(C(F)(F)F)c1,102.6,97.3,93.0,-14.7
CC(C)CCNC(=O)C1c2ccccc2Oc2ccccc21,107.9,107.8,100.3,·
COCCCNC(=O)c1cc(-c2ccc(C)cc2)nc2n[nH]c(-c3ccc(C)cc3)c12,100.3,·,·,3.4
O=C(c1cccc(Br)c1)N1CCc2ccccc2C1,·,90.2,96.9,9.9
CCOC(=O)Cn1c2[n+](c3ccccc31)CC(O)CS2 (stereo unspecified),95.2,102.9,95.2,-43.6
CC(C)OC(=O)COc1ccc2c(=O)c(Oc3ccccc3Br)c(C(F)(F)F)oc2c1,104.3,·,·,-13.7
CC(C)Cn1c(=O)c2cc(F)ccc2n2c(SCC(N)=O)nnc12,94.9,·,·,-8.5
COC(=O)CC1c2cc(OC)c(OC)cc2CCN1C(=O)c1cccc(C#N)c1 (stereo unspecified),·,88.0,91.5,-1.2
CN1C(=O)c2ccccc2C(C(=O)O)C1c1cccc(F)c1 (stereo unspecified),107.2,105.8,97.3,3.9
O=C1NC2=C(C(=O)NNC2)C(c2cccs2)N1 (stereo unspecified),·,111.4,95.3,14.4
CC(C)(CC(=O)O)CC(=O)N1CCCc2ccccc21,96.3,107.2,86.0,-13.8
CC(C)OC(=O)c1cc2ccsc2n1CC(=O)NC1CCCCC1,101.8,·,·,-22.1
O=C(Nc1nnc(S(=O)(=O)N2CCCCCC2)s1)c1ccccc1,98.0,92.9,46.3,-7.4
Cc1cc(-c2ccc(S(=O)(=O)Nc3cccc(C(F)(F)F)c3)s2)on1,100.0,104.3,97.8,·
O=C(O)CN1Cc2ccccc2C1=O,106.3,·,·,7.5
O=C(/C=C/c1ccccc1)Nc1nc2n(n1)C(c1ccc(F)cc1)C=C(c1ccccc1)N2 (stereo unspecified),111.0,85.5,58.7,-21.4
COc1ccc(/C=C(/Sc2n[nH]c(C)n2)C(=O)O)cc1OC,·,86.8,90.2,-9.8
CN(C)c1cccc(C(=O)N2CCC(c3ccncc3)CC2)c1,98.4,102.0,88.2,·
COc1cc(C(=O)O)ccc1OC(C)C,·,113.2,98.0,7.6
Fc1ccc(C2CCCN2Cc2ccc(Br)cc2)cc1 (stereo unspecified),100.5,·,·,-8.4
Cc1cc(F)ccc1S(=O)(=O)Nc1ccc2oc(C)c(C(=O)OC(C)C)c2c1,102.6,85.4,77.3,-20.2
CN(C)c1cccc(N(C)C)c1CNC(=O)c1ccc(Cl)cc1,108.6,110.6,91.7,-13.2
CCN(CC)S(=O)(=O)c1ccc(-c2nc(C#N)c(NC)o2)cc1,96.7,·,·,-14.8
O=C(NCCCN1CCCCC1)C1(S(=O)(=O)c2ccc(Cl)cc2)CC1,101.4,100.6,84.2,-3.7
CCC1(C)NC(=O)N(/N=C/c2cccs2)C1=O (stereo unspecified),·,95.2,96.6,-38.7
Fc1ccc(CNC2CC2)cc1,·,91.5,100.3,-6.9
O=C(c1cc2ccccc2oc1=O)N(Cc1ccc(F)cc1)Cc1ccco1,97.6,106.7,85.3,-13.7
COc1cc(-c2nnc(COC(=O)c3ccc(-n4nc(C)cc4C)cc3)o2)cc(OC)c1OC,·,68.3,87.2,-34.6
O=C(Nc1cc(F)cc(F)c1)c1ccc(Nc2ccnc(-c3ccc(F)cc3)n2)cc1,101.2,·,·,-8.2
CN(C)Cc1c2ccccc2cc2ccccc12,·,118.0,100.4,-31.1
O=C(CC1C(=O)N(c2ccccc2)C(=S)N1NC(=O)c1ccncc1)NCCc1ccccc1 (stereo unspecified),·,103.4,87.4,14.8
COCc1cc(C)nc2sc(C(=O)Nc3ccc(N4CCOCC4)cc3)c(N)c12,107.0,101.3,92.6,-82.5
Cc1cc(-c2ccccc2)nc(=O)[nH]1,114.8,102.2,92.5,-18.6

# A section taken from the entries so far, for reference:
SMILES,GIV-Gai inh,Sa growth inh,Sa growth inh second temp,HCMV NEC inh
COc1cc(-c2nnc(COC(=O)c3ccc(-n4nc(C)cc4C)cc3)o2)cc(OC)c1OC,·,68.3,87.2,-34.6
O=C(Nc1cc(F)cc(F)c1)c1ccc(Nc2ccnc(-c3ccc(F)cc3)n2)cc1,101.2,·,·,-8.2
CN(C)Cc1c2ccccc2cc2ccccc12,·,118.0,100.4,-31.1
O=C(CC1C(=O)N(c2ccccc2)C(=S)N1NC(=O)c1ccncc1)NCCc1ccccc1 (stereo unspecified),·,103.4,87.4,14.8
COCc1cc(C)nc2sc(C(=O)Nc3ccc(N4CCOCC4)cc3)c(N)c12,107.0,101.3,92.6,-82.5
Cc1cc(-c2ccccc2)nc(=O)[nH]1,114.8,102.2,92.5,-18.6

# Next part.
SMILES,GIV-Gai inh,Sa growth inh,Sa growth inh second temp,HCMV NEC inh
Cc1cc(NCCN)nc(NS(=O)(=O)c2ccccc2Cl)n1,103.0,·,·,27.7
Cc1ccc(Cn2nc(C)c(/C=C/C(=O)Nc3nnc(C4CC4)s3)c2C)cc1,·,115.2,104.0,3.6
CCOC(=O)c1c(S(=O)(=O)N2CCC(C(=O)NCc3cccc(C)c3)CC2)c(C)n(C)c1C,100.5,107.5,83.7,·
COc1ccc(OC)c(CCNC(=O)c2cnn(-c3ccccc3Cl)c2C2CCN(C(=O)OC(C)(C)C)CC2)c1,101.9,92.0,87.3,·
CC1(C)C=Cc2cc(/C(N)=N/O)ccc2O1,99.9,101.4,86.6,-13.6
CCN(CC)S(=O)(=O)c1cccc(C(=O)Oc2cccnc2)c1,100.9,100.3,73.5,-3.7
COc1ccc(C2C(C(=O)N3CCC(Cc4ccccc4)CC3)CCC(=O)N2c2ccc(OC)cc2)cc1 (stereo unspecified),103.8,·,·,-18.9
COc1ccc(NC2=NC(c3ccc(OC)cc3)n3c(nc(C)cc3=O)N2)cc1 (stereo unspecified),96.0,·,·,1.4
COCCn1nnnc1CN1CCC(Cc2ccccc2)CC1,100.8,134.9,88.8,-1.7
COc1ccc(NC(=O)c2ccccn2)cc1OC,·,108.4,98.7,-9.5
O=C1NC(=S)S/C1=C\C=C\c1ccccc1,·,6.9*,5.0*,-74.2
COc1ccc(NC(=O)CN(C)S(=O)(=O)c2cccs2)cc1,106.8,115.0,90.2,0.0
CCOC(=S)SCc1cn2ccc(C)cc2n1,101.9,99.4,78.2,·
Cc1ccc(OC(=O)c2sc3nc(-c4ccc(Cl)cc4)nn3c2C)cc1,97.2,99.2,94.1,-28.4
O=C(NCc1ccco1)c1ccc(Cn2c(SCc3ccccc3)nc3ccncc32)cc1,102.8,87.6,79.7,·
O=C1CC(c2ccccc2)CC(O)=C1C=Nc1ccccc1Cl (stereo unspecified),99.9,90.3,81.5,-9.0
CCN(Cc1ccccc1)C(=O)Cn1c(=O)n(-c2ccc(F)c(Cl)c2)c(=O)c2sc3ccccc3c21,104.6,99.7,98.3,4.9
COCCC(=O)C1=CSC2=C(C(=O)CC(C)(C)C2)C1c1ccncc1 (stereo unspecified),·,115.6,77.3,-17.5
CC1CC(C)CN(C(=O)COC(=O)c2ccc(Cl)cc2)C1 (stereo unspecified),·,104.1,90.6,-22.9
O=C(O)c1cc(Cl)ccc1S(=O)c1ccccc1CO (stereo unspecified),108.0,88.0,88.3,-20.1
CC(=O)Oc1ccc(C(=O)NC2CCSC2=O)cc1 (stereo unspecified),98.6,107.4,80.8,-17.2
Cc1nc(C)c(-c2ccc(SCC(=O)Nc3ccc(F)c(F)c3)nn2)s1,97.7,92.2,70.6,·
Cn1cnc(S(=O)(=O)N2CCCC(C(=O)NCCCc3ccccc3)C2)c1 (stereo unspecified),108.0,·,·,-12.1
CC(C)Cn1cc(NC(=O)N2CCN(c3ccccc3)CC2)c2ccccc2c1=O,99.1,108.9,94.5,-29.1
CCOc1ccc(C(=O)c2cn(Cc3cccc(OC)c3)c3cc4c(cc3c2=O)OCO4)cc1,99.9,99.9,85.6,-46.7
N#Cc1nc(-c2ccc(S(=O)(=O)N3CCCCC3)cc2)oc1NC1CCCCC1,106.6,·,·,9.2
COc1cc2c3c(c1OC)C1(C=CC(=O)C=C1)CC3NCC2 (stereo unspecified),104.9,100.9,96.2,-14.7
CCCCC(C(N)=O)C1=NC(C)(C)Cc2ccccc21 (stereo unspecified),99.6&94.7,85.2,94.2,-4.3
CC(C)CCNC(=O)C(=O)Nc1c2c(nn1-c1ccccc1)CS(=O)(=O)C2,99.8,115.2,78.4,·
Cc1ccc(S(=O)(=O)c2c(C)cc(C)[nH]c2=O)cc1,97.9,·,·,-24.8
Cc1ccc(NC(=O)c2ccc(NC(=O)N3CCSc4nc(C)cc(C)c43)cc2)c(Cl)c1,111.4,107.2,96.7,·
CCOc1ccc(-c2ccc(SCc3nc(-c4ccc(OC)c(OC)c4)no3)nn2)cc1,107.6,·,·,-14.3
Oc1[nH]c2ccccc2c1C=Nc1cccc(Cl)c1,100.8,112.7,93.4,·
Cn1cccc1C(=O)OCC(=O)C12CC3CC(CC(C3)C1)C2,·,94.7,102.5,-10.6
O=C(O)CCCC(=O)N1N=C(c2ccccc2)CC1c1ccccc1F (stereo unspecified),108.6,·,·,-15.2
